# VCAM-1 inhibition: inhibitors of TNFa-induced VCAM-1 surface display, cell-based, plate reader, pooled HUVEC, TNFa stimulus (AID 454); HUVEC TNFa-induced VCAM-1 surface immunofluorescence, plate reader; numbers were filed only for top-ranked candidate wells; inhibition, % at 5 µM; 0.2% of 10,000 active;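 active = compound among top-ranked inhibitors of TNF-induced VCAM-1 adhesion protein staining, with the hit upheld by image or statistical review; inactive = the rest, including hits rejected on review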;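 note: 0% = TNFa with vehicle and 100% = cells without TNFa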
# FPR binder: binds the human formylpeptide receptor FPR | P21462 | FPR-expressing cells, fluorescent ligand binding, flow cytometry | inhibition, %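 (tested at 6.7 µM)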 | 0.74% of 24,000 active;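 note: 0% = buffer wells and 100% = receptor blocker peptide wells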
# Target sequence (P21462 whole entry, looked up): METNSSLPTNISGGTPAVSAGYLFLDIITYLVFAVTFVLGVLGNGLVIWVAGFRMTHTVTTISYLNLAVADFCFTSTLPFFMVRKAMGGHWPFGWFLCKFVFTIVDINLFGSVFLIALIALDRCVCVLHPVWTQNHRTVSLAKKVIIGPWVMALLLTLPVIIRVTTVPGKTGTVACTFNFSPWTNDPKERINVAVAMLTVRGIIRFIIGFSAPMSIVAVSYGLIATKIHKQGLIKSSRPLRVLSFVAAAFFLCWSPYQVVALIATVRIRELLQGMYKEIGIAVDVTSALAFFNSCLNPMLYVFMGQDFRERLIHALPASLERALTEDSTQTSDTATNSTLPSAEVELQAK
# VCAM-1 augmentation: enhancers of VCAM-1 display on endothelial cells, imaging, high-content imaging, pooled HUVEC, TNFa stimulus (AID 457). Pooled HUVEC, TNFa-induced VCAM-1 immunofluorescence imaging; hits of this screen are not shown here. calls only. 0.2% of 10,000 active;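 active = a top-ranked rise in VCAM-1 staining upheld on image or statistical review; inactive = the rest, including candidates rejected on review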;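 note: compounds tested at 5 µM in the well; cells exposed to compound for 24 hours before fixing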
# FPRL1 ligand: human FPRL1 ligand, with FPR counter-screen; P25090; 0.3% of 24,000 active; inhibition, %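 (tested at 6.7 µM)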; AID 441; FPRL1-expressing cells, fluorescent ligand binding inhibition, flow cytometry;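 note: 0% = buffer alone and 100% = receptor blocker peptide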
# Target sequence (P25090 whole entry, looked up): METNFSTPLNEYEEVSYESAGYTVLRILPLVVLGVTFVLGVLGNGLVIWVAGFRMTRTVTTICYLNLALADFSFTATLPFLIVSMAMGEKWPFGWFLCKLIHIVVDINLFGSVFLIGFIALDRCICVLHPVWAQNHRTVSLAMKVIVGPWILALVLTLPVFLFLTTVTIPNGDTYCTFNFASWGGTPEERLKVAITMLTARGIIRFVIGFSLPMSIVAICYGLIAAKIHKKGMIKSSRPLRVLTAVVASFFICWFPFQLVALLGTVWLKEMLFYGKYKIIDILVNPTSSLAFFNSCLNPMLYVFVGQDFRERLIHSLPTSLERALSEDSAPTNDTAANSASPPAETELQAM
# VCAM-1 down imaging: suppression of endothelial VCAM-1 upregulation – imaging, high-content imaging, pooled HUVEC, TNFa stimulus (AID 456); inhibition, % at 5 µM; hits with a dose series show IC50 in µM; HUVEC TNFa-induced VCAM-1 surface expression, immunofluorescence imaging; numbers were filed only for top-ranked candidate wells; 0.2% of 10,000 active;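 active = top tenth filtered wells with inhibition above zero that passed visual or statistical confirmation; inactive = the rest, including hits rejected on review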;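 note: 0% = stimulated vehicle wells and 100% = unstimulated cells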
# * = called active by the depositor; i = inactive; ? = inconclusive; . = no result given.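 Rule for the calls, unless noted: active = mean above 30%; inconclusive = self-fluorescent; inactive = the rest.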 Not all compounds are listed. The share of hits here may be higher or lower than overall.
SMILES,VCAM-1 inhibition,FPR binder,VCAM-1 augmentation,FPRL1 ligand,VCAM-1 down imaging
CCOC(=O)c1c(C)c(C(=O)NCc2ccco2)c(C)n1Cc1ccccc1,.,1,.,-6,.
CC(C)OC(=O)CN1CCN(S(=O)(=O)c2cc(Cl)ccc2Cl)CC1,.,-1,.,-3,.
CCOC(=O)N1CCN(C(=O)CN(c2cccc(C(F)(F)F)c2)S(=O)(=O)c2ccccc2)CC1,.,3,.,7,.
CC(=O)N1CCCc2cc(S(=O)(=O)N3CCN(C4CCCCC4)CC3)ccc21,.,-7,.,4,.
COc1ccccc1N1CCN(C(=O)c2cc(-c3cccc(Cl)c3)on2)CC1,.,0,.,2,.
COc1ccccc1-c1nnc(SCC(=O)NC2CCCCC2)o1,i,-2,i,8,i
CCC(=O)Nc1ccc(NC(=O)CSc2nnnn2C(C)C)cc1,i,-3,i,1,i
COc1ccc(-n2cc(-c3ccccc3)c3c(N4CCN(CCO)CC4)ncnc32)cc1,94,5,i,-2,i
CCN1CCN(C(=O)CS(=O)(=O)Cc2nc(-c3ccc(C)cc3)oc2C)CC1,.,-5,.,-7,.
COc1ccc(N2C(=O)C(CC(=O)Nc3ccccc3)N(Cc3ccc4c(c3)OCO4)C2=O)cc1 (stereo unspecified),.,0,.,-9,.
Cc1ccc(NC(=O)CSc2nnc(NC(=O)CN3CCOCC3)s2)cc1,i,3,i,1,i
COc1ccc(NC(=O)CN2CCN(CC(=O)Nc3ccc(OC)c(OC)c3)CC2)cc1,.,-2,.,1,.
O=C(CN1CCN(CCC(=O)Nc2ccccc2F)CC1)Nc1ccc(F)cc1,.,0,.,0,.
COc1cc(OC)cc(C(=O)N2CCN(C(=O)c3ccc(OC)c(OC)c3)CC2)c1,i,-8,i,-1,i
CCN1CCCC1CNC(=O)CCc1nc(-c2ccc(C)cc2)no1 (stereo unspecified),.,3,.,0,.
CC(C)c1nc(N2CCN(C(=O)c3ccco3)CC2)c2c3c(sc2n1)CCCC3,i,21,i,10,i
CCOC(=O)Cn1nc(-c2ccc(Cl)cc2)cc1N,i,-2,i,-6,i
Cn1c(=O)oc2cc(S(=O)(=O)NCCCN3CCCC3=O)ccc21,.,1,.,-5,.
CCCCCC1NC(=O)NC1CCCCCC(=O)O (stereo unspecified),i,-1,i,2,i
O=C(CCN1C(=O)C2C3C=CC(C3)C2C1=O)N1CCN(c2ccccc2F)CC1 (stereo unspecified),.,3,.,0,.
CCN(Cc1cc2cc(OC)ccc2[nH]c1=O)C(=O)Cc1ccc(OC)cc1,i,6,i,-4,i
CCOc1cccc2cc(C(=O)N3CCN(C/C=C/c4ccccc4)CC3)c(=O)oc12,i,-8,i,-4,i
COc1cc(OC)c(C(=O)Nc2ccc(N(C)C)cc2)cc1OC,i,-6,i,2,i
C/C(N)=C(/C#N)C(=O)CSc1nnc(Nc2c(C)cccc2C)s1,i,5,i,-4,i
Cc1nc2c(ccc3nc(NC(=O)c4ccc(S(=O)(=O)N(C)C)cc4)sc32)s1,.,-3,.,-4,.
# Remaining list, next part
SMILES,VCAM-1 inhibition,FPR binder,VCAM-1 augmentation,FPRL1 ligand,VCAM-1 down imaging
CCOC(=O)c1ccc(NC(=O)CSc2n[nH]c(-c3ccncc3)n2)cc1,i,-4,i,1,i
COc1ccc(NC(=O)C2C(=O)NC3(C)CC2c2ccccc2O3)cc1 (stereo unspecified),.,12,.,30*,.
CCCS(=O)(=O)n1nc(-c2ccc(OC)cc2OC)cc1N,.,11,.,14,.
COc1cc(C2C(=O)N(C3CCCC3)CC(=O)N2Cc2ccco2)ccc1OC(C)C (stereo unspecified),.,-3,.,1,.
COCC(C)NC(=O)c1cc(-c2cccc(OC)c2)on1 (stereo unspecified),.,17,.,8,.
Cn1c2ccccc2c2c(C(=O)N3CCN(c4ccccn4)CC3)cn(C3CCCC3)c(=O)c21,.,4,.,3,.
COc1cccc(-c2nc(CS(=O)(=O)CC(=O)NCc3ccc(Cl)cc3)c(C)o2)c1,i,-4,i,2,i
COc1ccc(-c2cc3ccccc3n2CC(O)CN2CCN(CCO)CC2)cc1 (stereo unspecified),.,-8,.,-8,.
N#CCCn1ccc(NC(=O)c2ccc(Cl)cc2)n1,i,-5,i,-6,i
CCCn1c(SCC(=O)NC(C)(C)C)nnc1C(C)C,i,-2,i,2,i
Cc1nn(-c2ccccc2)c(Cl)c1C1C(C#N)=C(N)OC2=C1C(=O)CC(C)(C)C2 (stereo unspecified),i,4,i,4,i
CC(Oc1ccccc1)C(=O)Nc1ccc(S(=O)(=O)NCC2CCCO2)cc1 (stereo unspecified),i,-3,i,5,i
O=C(NCCC1=CCCCC1)C1CCN(S(=O)(=O)c2cccc3cccnc23)CC1,i,-6,i,1,i
CC1CCN(CCc2nc3cc(NS(=O)(=O)c4ccc(F)cc4)ccc3n2C)CC1,i,-14,i,-4,i
Cc1cc(C(=O)CSc2nnc(-c3ccccc3)n2C)c(C)n1C,i,-5,i,4,i
COc1ccc(N2CCN(C(=O)c3cn(C4CCCC4)c(=O)c4c3c3ccccc3n4C)CC2)cc1,.,6,.,0,.
O=S(=O)(NCc1cn2ccsc2n1)c1ccc2c(c1)OCCO2,i,-6,i,2,i
CCOC(=O)c1ccc(NC(=O)CSc2nnc(CNC(=O)c3ccccc3F)o2)cc1,.,-3,.,-6,.
CCC(C)(C(=O)NC1CCCC1)N(Cc1cccs1)C(=O)Cc1cccs1 (stereo unspecified),i,1,i,0,i
CN1CCN(CC(=O)N2c3ccccc3C(=O)Nc3cccnc32)CC1,i,6,i,4,i
CCn1cc(C(=O)N(CCCN2CCOCC2)Cc2ccco2)c(=O)c2ccc(C)nc21,.,5,.,0,.
CC(C(=O)O)c1ccc(-c2ccccc2)c(F)c1 (stereo unspecified),i,1,i,-2,i
Cc1ccc(-c2csc3ncn(-n4c(C)ccc4C)c(=O)c23)o1,i,-10,i,5,i
COc1cccc(-c2cc(C(=O)Nc3cc(C)n(Cc4ccc(Cl)cc4)n3)no2)c1,i,6,i,-11,i
Cc1nc2ncnn2c(C)c1CCC(=O)N1CCN(C(=O)c2ccco2)CC1,.,-1,.,-3,.

# 3 structures from above, arranged by count of non-hydrogen atoms, low to high.
SMILES,VCAM-1 inhibition,FPR binder,VCAM-1 augmentation,FPRL1 ligand,VCAM-1 down imaging
COc1cccc(-c2nc(CS(=O)(=O)CC(=O)NCc3ccc(Cl)cc3)c(C)o2)c1,i,-4,i,2,i
CCn1cc(C(=O)N(CCCN2CCOCC2)Cc2ccco2)c(=O)c2ccc(C)nc21,.,5,.,0,.
Cn1c2ccccc2c2c(C(=O)N3CCN(c4ccccn4)CC3)cn(C3CCCC3)c(=O)c21,.,4,.,3,.

# Further compounds.
SMILES,VCAM-1 inhibition,FPR binder,VCAM-1 augmentation,FPRL1 ligand,VCAM-1 down imaging
CCN(CC)c1ccc2cc(-c3nc4ccccc4[nH]3)c(=O)oc2c1,i,.,i,?,i
Cc1ccc(Oc2ccc(S(=O)(=O)N3CCOCC3)cc2C(N)=O)c(-n2nc3ccccc3n2)c1,.,4,.,1,.
CCCOc1ccc(C2C(C(=O)c3ccco3)=C(O)C(=O)N2CCCn2ccnc2)cc1 (stereo unspecified),.,55*,.,-5,.
CCOC(=O)C1=C(C)N=C2SC(C)C(=O)N2C1c1cccc(F)c1 (stereo unspecified),i,-5,i,-2,i
Nc1nc(-n2cnnc2)nn1-c1ccccc1,i,-8,i,-4,i
COC(=O)C(CCSC)NC(=O)Cn1ncc2c(=O)oc3ccc(C)cc3c21 (stereo unspecified),.,1,.,0,.
Cc1ccccc1NS(=O)(=O)c1ccc(NC(=O)c2ccco2)cc1,i,2,i,-3,i
CN1CCN(CCCNC(=O)c2cn(C)c3ccc(S(=O)(=O)N(C)C)cc3c2=O)CC1,.,4,.,1,.
Cc1cc(C)cc(N(CC(=O)Nc2cccc(C)n2)S(=O)(=O)c2c(C)noc2C)c1,i,2,i,0,i
CCCN(CCC)CCCNC(=O)c1cn(CCOC)c(=O)c2c1c1ccccc1n2C,.,0,.,-5,.
O=C(CCn1cccc1)NCc1ccccc1,.,-4,.,3,.
CCCCCNC(=O)CCCCn1c(=O)[nH]c2cc(OCC)c(OCC)cc2c1=O,.,-2,.,-11,.
CCS(=O)(=O)N1CCCC(C(=O)NCc2ccc(C)cc2)C1 (stereo unspecified),.,4,.,-5,.
CCS(=O)(=O)N1CCC(C(=O)NCCc2ccccc2)CC1,.,0,.,-5,.
O=C(NCCN1CCCC1)C1CC(=O)N(C2CCCCC2)C1 (stereo unspecified),.,-1,.,0,.
CCOC(=O)C1CCN(C(=O)c2cc3cc4cc(OC)ccc4nc3o2)CC1,.,4,.,-4,.
COc1ccc(-c2cc3ccc(OCc4nn[nH]n4)cc3oc2=O)cc1,i,-1,i,-1,i
COc1cccc(CNC(=O)CCS(=O)(=O)c2cccc3nsnc23)c1,i,-3,i,-4,i
O=C(CN1C(=O)C2C3C=CC(C3)C2C1=O)Nc1ccc2nccnc2c1 (stereo unspecified),.,0,.,0,.
Nc1nc(NC(=O)c2cccs2)nn1-c1ccccc1,i,-8,i,1,i
COC(=O)c1ccc(NC(=O)C2C3C=CC(O3)C2C(=O)O)cc1 (stereo unspecified),.,-5,.,4,.
Cc1cccc(NC(=O)CCCCCN2C(=O)c3ccccc3C2=O)n1,i,-1,i,-2,i
CCOC(=O)c1c(C)oc2c1c(C=NC1CCS(=O)(=O)C1)c(O)c1ccccc12 (stereo unspecified),.,1,.,-3,.
O=C(C1CCN(c2ccc(N3CCOCC3)nn2)CC1)N1CCN(c2ccc(F)cc2)CC1,.,8,.,6,.
CCC1(C(=O)OC)NC(c2cccc(F)c2)C2C(=O)N(C)C(=O)C21 (stereo unspecified),i,-3,i,0,i

# Nothing new here: entries from further up.
SMILES,VCAM-1 inhibition,FPR binder,VCAM-1 augmentation,FPRL1 ligand,VCAM-1 down imaging
O=C(C1CCN(c2ccc(N3CCOCC3)nn2)CC1)N1CCN(c2ccc(F)cc2)CC1,.,8,.,6,.
CCC1(C(=O)OC)NC(c2cccc(F)c2)C2C(=O)N(C)C(=O)C21 (stereo unspecified),i,-3,i,0,i

# More compounds follow.
SMILES,VCAM-1 inhibition,FPR binder,VCAM-1 augmentation,FPRL1 ligand,VCAM-1 down imaging
COc1ccc(Cl)cc1Nc1cc(C)nc2nc(C)nn12,.,1,.,8,.
CC(C)C(=O)N1CCN(c2nc(-c3ccccc3)c3c(c2C#N)CCCC3)CC1,i,-5,i,-5,i
COc1cccc(-n2c(Cc3cc(=O)[nH]c(=O)[nH]3)nnc2SCC(=O)N2CCC(C)CC2)c1,.,1,.,-10,.
O=C(Cn1nnc(-c2ccccc2)n1)Nc1ccccc1N1CCOCC1,i,1,i,6,i
Cc1cccc(N(C)C(=O)COc2cc(=O)n(C)c3ccccc23)c1,.,5,.,4,.
CC1CCCCN1Cc1ccc(-c2nn[nH]n2)cc1 (stereo unspecified),.,0,.,-2,.
COc1ccc(C2c3c(oc4ccccc4c3=O)C(=O)N2c2ccccn2)cc1OC (stereo unspecified),.,2,.,2,.
O=C(CCN1C(=O)C2CC=C(Cl)CC2C1=O)Nc1ccccc1O (stereo unspecified),.,-1,.,-4,.
Cn1c(C(=O)N2CCCC(C(=O)NCc3ccc4c(c3)OCO4)C2)cc2sccc21 (stereo unspecified),.,8,.,1,.
FC(F)(F)c1cc(-c2ccco2)nc(-n2nnc3ccccc32)n1,i,3,i,2,i
Cc1ccc(Nc2cc(C)nc3nnnn23)cc1,i,3,i,1,i
O=C(Cn1cnc2c(nnn2-c2cccc(Cl)c2)c1=O)N1CCCC1,.,-6,.,-2,.
COCCNC(=O)CN1C(=O)CSc2ncccc21,i,4,i,6,i
O=C(NCC1CCCO1)C1CCCN(S(=O)(=O)c2cccc3nsnc23)C1 (stereo unspecified),i,-3,i,6,i
CC(C)(C)c1cc(CCC(=O)N2CCNCC2)c(C(C)(C)C)cc1O,i,-2,i,-5,i
Cc1cc(C)n2nc(C(=O)NCc3ccco3)nc2n1,i,-4,i,-12,i
COC(=O)c1ccc(CSc2ccc3nnc(-c4ccc(OC)c(OC)c4)n3n2)o1,.,25,.,13,.
COc1cc(/C=c2\sc3nc(-c4ccncc4)nn3c2=O)ccc1OC(C)=O,.,-1,.,-14,.
CC(=O)N(Cc1ccco1)C1(C(=O)NC2CCCCC2)CCCCC1,.,3,.,5,.
Cc1c(NC(=O)c2cc(-c3cccs3)on2)c(=O)n(-c2ccccc2)n1C,.,-4,.,-2,.
COc1cc(NS(=O)(=O)c2cccc3nsnc23)c(C(=O)O)cc1OC,i,0,i,-2,i
CCCC(=O)c1cc2ccccc2oc1=O,.,4,.,1,.
O=C1Nc2ccccc2OC1CC(=O)N1CCCC1 (stereo unspecified),i,-6,i,-3,i

# Screening results: PubChem BioAssay, several laboratories
